NPYLR7 agonist: agonists of mosquito NPYLR7 receptor, primary screen, cell-based, Aedes aegypti, calcium fluorescence, mosquito biting behavior; HEK293T NPYLR7/Galpha15, GCaMP6s calcium fluorescence; activation, % at 10 µM; 270,000 compounds, 0.15% hits; AID 1259423, 2018; in the data active = activation above about 40%;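 note: 0% = vehicle and 100% = reference agonist at the receptor; some compounds past the cut are filed as inactive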
NPYLR7 agonist max-min: second read-out of NPYLR7 agonist, no call of its own (marks repeat the call); activation, %; measured here: Max-Min RFU normalised activation; some inactives read as strong as hits;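 span of the calcium signal over five minutes; 0% = vehicle and 100% = native peptide agonist; compound fluorescence can raise it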
Starred values were filed as active, the others as inactive; & = joins results of further samples; ! = not active in a repeat. Not all compounds are listed (hit frequency here may not be typical).

SMILES	NPYLR7 agonist	NPYLR7 agonist max-min
O=C(NC1CCCCNC1=O)c1cc(-c2ccc(F)cc2)nc2cc(-c3ccccc3)nn12 (stereo not drawn)	-1	7
Nc1nc(SC(C(=O)NC2CCCCC2)c2ccccc2)n[nH]1 (stereo not drawn)	-13	-19
CSc1ccc(CN2CCC2(C)C(=O)NC2CCN(Cc3ccccc3)CC2)cc1 (stereo not drawn)	3	-1
Cc1ccc(-c2nnc(SCC(=O)N3CCCC3=O)o2)cc1	-13	-14
COc1ccc(CCC(=O)N(C)CC(=O)Nc2cc(C)on2)cc1Br	-2	14
c1ccc(C2=Nc3ccccc3NC(c3ccccc3)C2)cc1 (stereo not drawn)	-13	-19
Nc1nc(CCCNC(=O)c2cccc3ccnn23)cs1	-3	-6
CO[C@@]1(NC(=O)CSCC#N)C(=O)N2C(C(=O)O)=C(CSc3nnnn3C)CSC21 (stereo partly drawn)	49*!	43*!
COCc1ccccc1NC(=O)C(C)N1C(=O)c2cc(Cl)c(Cl)cc2C1=O (stereo not drawn)	-4	-5
NCCc1nc(NCc2ccccc2Cn2cccn2)c2ccccc2n1	22	9
COc1ccc(OC)c(-c2nc3c(C)cccn3c2Nc2c(C)cccc2C)c1	20	17
O=C(COc1ccccc1)Nc1ccc(-c2nc3ccccc3c(=O)o2)cc1	-6	-9
CCC1OC2CC3(O1)C1CCC4=CC(=O)CCC4(C)C1CCC3(C)C2C(C)=O (stereo not drawn)	5	10
Cc1c(Cl)c(C(=O)N2CCCN(CC3CC3)C(C(C)C)C2)nn1C (stereo not drawn)	21	10
Cc1cc(OC(=O)/C=C/c2ccc3c(c2)OCO3)c([N+](=O)[O-])c(=O)[nH]1	-6	-5
O=C(Nc1ccccc1)N1CCCC(OCc2ccccc2Cl)C1 (stereo not drawn)	-8	-7
Cc1ccc(S(=O)(=O)NC(C)(C)CN2CCc3ccccc3C2)cc1	2	-4
CCCCSc1nnc2c(n1)OC(c1cc(C)ccc1C)Nc1ccccc1-2 (stereo not drawn)	-15	-16
Cc1noc(C)c1C(=O)Nc1ccc(Cl)cc1C(=O)N1C(C)CCCC1C (stereo not drawn)	3	4
O=C(c1cccs1)N(Cc1ccco1)Cc1nccn1Cc1ccccc1	10	12
CN(C(=O)CC(c1ccccc1)c1cccc(Cl)c1)C1CCOCC1 (stereo not drawn)	2	-1
C#Cc1cccc(N(CC(=O)N2CCCC(NC(C)=O)C2)C(C)C)c1 (stereo not drawn)	4	0
COc1ccc(-n2nnnc2C2(N3CC45C=CC(O4)C(C(=O)O)C5C3=O)CCCCC2)cc1 (stereo not drawn)	2	29
Cc1nc(SCC(=O)Nc2ccnn2C2CCCC2)c2c(C)c(C)sc2n1	2	3
Cc1ccccc1Cn1c(=N)n(CC(O)c2ccco2)c2ccccc21 (stereo not drawn)	-3	-4
COc1cccc(CC(=O)NCc2ccc(C)s2)c1	33	22
O=C(Nc1ccccc1Cn1cccn1)c1ccc(Br)cc1	14	12
CCN1C(=O)C(=Cc2c(N3CCN(CCO)CC3)nc3c(C)cccn3c2=O)SC1=S	1	1
CC1=NN(C)c2nc3c(c(=O)n(CC=Cc4ccccc4)c(=O)n3C)n2C1C (stereo not drawn)	20	13
Cc1nc2ncnn2c(C)c1CCC(=O)N1CCC2(CCCN(CC3CC3)C2)C1 (stereo not drawn)	3	2
COc1ccc(C2=NOC(CN(Cc3cccc(Cl)c3)C(=O)NC(C)C)C2)cc1 (stereo not drawn)	17	17
N#CCOc1nc(C(F)(F)F)nc2c1cnn2-c1ccccc1	-1	1
Cc1ccc(C(=O)N(Cc2ccccn2)CC(C)C)cc1N1CCNC1=O	12	-2
CC(C)(C)c1nc(CSc2n[nH]c(C3CC3)n2)no1	9	7
O=C(NCCNC(=O)c1ccn[nH]1)c1ccn[nH]1	0	-3
O=C(Nn1cnc2ccccc21)c1cccc(S(=O)(=O)Nc2ccc(Br)cc2)c1	-3	-1
Cc1nn(Cc2nc3ccccc3n2C(F)F)c(=O)c(C#N)c1C	4	0
CCOC(=O)N1CCN(C(=O)Nc2c(CC)cccc2CC)CC1	-2	-3
CSc1nnc2n1CCN2c1ccc(F)cc1	8	7
Cc1ccc(-c2csc3ncn(CCC(=O)N4CCCCC4)c(=O)c23)cc1	3	-1
Cc1ccc(S(=O)(=O)NCCc2csc3nc(-c4cccc(F)c4)nn23)s1	-3	-4
Cc1c(C)n2c3c(=O)n(CCCO)c(=O)n(C)c3nc2n1-c1ccc(N(C)C)cc1	4	-3
Cc1ccsc1CN(CC(C)C)CC(O)CO (stereo not drawn)	9	4
Cn1c(-c2cccs2)nc2sc3c(c2c1=O)CCCC3	0	0
CC1Cc2cc(-c3cc(COC(=O)C4CCN(S(C)(=O)=O)CC4)no3)ccc2O1 (stereo not drawn)	0	-4
COC(=O)C1Cc2ccccc2CN1S(=O)(=O)c1cccc(C#N)c1 (stereo not drawn)	-2	-2
O=C1CCc2cc([N+](=O)[O-])ccc2N1	-5	-3
Cc1ccc(C)c(Cn2c(N3CCN(Cc4ccccc4C)CC3)nc3c2c(=O)[nH]c(=O)n3C)c1	1	27
Nc1nc(-c2ccc(Br)cc2)nn1C(=O)C1=COCCC1	-1	29
Cc1cc(NC(=O)COC(=O)C(C)N2C(=O)C3CC=CCC3C2=O)no1 (stereo not drawn)	7	8
CCn1ncc(C(=O)N(C)Cc2nc3cc(C)c(C)cc3[nH]2)c1C	4	2
NC(=O)CNC(=O)c1cccc(OCc2ccc(F)cc2Cl)c1	9	5
Cc1nnsc1CN(C)Cc1cccn1S(=O)(=O)c1ccccc1	6	2
O=C(CCCN1C(=O)c2ccccc2C1=O)NC1CCCC1	22	18
CC(C)Cn1nc(C(=O)NC2CCCC2)c2c1CCN(C(=O)c1cncs1)C2	16	2
CC(C)c1nccc(CN(C)Cc2cc(-c3ccccc3)no2)n1	10	8
COc1cccc2sc(Nc3nc(C(C)(C)C)cs3)nc12	3	0
Cc1nc(N2CCCC2)nc(-c2ccccc2CN2CCOCC2)c1C	2	0
Cc1cc(C)cc(NC(=O)CCc2c(C)nn(-c3nc(C)cc(=O)[nH]3)c2C)c1	6	0
O=C(C1COc2ccccc2O1)N(Cc1ccccn1)c1nc2c(F)cccc2s1 (stereo not drawn)	-1	1
(list continues)
SMILES	NPYLR7 agonist	NPYLR7 agonist max-min
CCOC(=O)N1CCN(C(c2ccc(C)cc2)c2c(O)cc(C)n(CCOC)c2=O)CC1 (stereo not drawn)	7	-1
Cc1cccc(C2=N/C(=C\C=C\c3ccccc3)C(=O)O2)c1	2	-3
O=c1c(S(=O)(=O)c2ccc(F)cc2)c[nH]c2cc3c(cc12)OCO3	9	8
COc1cc(CN(C)C(=O)c2cc(N3CCSCC3)nc3ccccc23)cc(OC)c1OC	22	17
COc1cccc(-c2nnc(-c3cc4cc(Br)ccc4oc3=O)o2)c1	-5	-10
c1ccc(-c2ncn(Cc3csc(-c4ncccn4)n3)c2-c2ccco2)cc1	10	-1
CCOC(=O)c1cccc(COC(=O)CCS(=O)(=O)c2ccc(C)cc2)c1	0	2
Cc1c(C)n2c3c(=O)[nH]c(=O)n(C)c3nc2n1CCCO	1	-3
C[N+](C)(C)CCOC(=O)CCC(=O)OCC[N+](C)(C)C	1	7
Cc1nc(-c2ccc(Br)cc2)nc(NCCO)c1C	11	5
O=C(NCC1=CCCN(Cc2cc(F)ccc2Cl)C1)c1ccco1	0	-1
COc1ccccc1Cc1noc2cc(O)ccc12	-1	-2
C=CCNC(=O)[C@@H]1CCCC[C@@H]1C(=O)NCC1(O)CCCCC1	6	2
CCC1CN(CC(=O)NCc2ccccn2)c2ccccc2O1 (stereo not drawn)	-2	1
Cc1nc2ccc(C(=O)N(C)CCCN(C)C)cn2c1N(C)CC1CCCCC1	-7	-12
CCn1c2c(c(=O)[nH]c1=O)C(c1ccc(O)cc1)C1C(=O)CC(C)(C)CC1=N2 (stereo not drawn)	12	15
C=CCCC(O)CN(CCOC)Cc1cccn1Cc1ccc(C(C)(C)C)cc1 (stereo not drawn)	14	29
COc1ccc(CN(Cc2ccc(F)cc2)Cc2nc(C(=O)NCc3cccnc3)co2)cc1	31	28
CCc1c(C(=O)NC(C)c2ncnn2CC)csc1C (stereo not drawn)	9	7
CC(C)(C)c1cc(C(=O)CCN2CCOCC2)cc(C(C)(C)C)c1O	4	2
CCOP(=O)(OCC)c1nc(-c2ccc(F)cc2)oc1NCc1ccccc1	0	-1
O=S(=O)(NCCN1CC=CC1)c1ccc(Cl)cc1F	7	4
COc1ccccc1NC(=O)Nc1ccnn1C1CCN(C(=O)C2CCCCN2C)CC1 (stereo not drawn)	7	4
CC(C)(Cc1ccccc1Cl)Nc1nn2c(=O)ccnc2s1	-1&2	-1&0

Five compounds drawn at random from those above:
SMILES	NPYLR7 agonist	NPYLR7 agonist max-min
Nc1nc(CCCNC(=O)c2cccc3ccnn23)cs1	-3	-6
CCOP(=O)(OCC)c1nc(-c2ccc(F)cc2)oc1NCc1ccccc1	0	-1
Cc1cc(NC(=O)COC(=O)C(C)N2C(=O)C3CC=CCC3C2=O)no1 (stereo not drawn)	7	8
Cc1cc(C)cc(NC(=O)CCc2c(C)nn(-c3nc(C)cc(=O)[nH]3)c2C)c1	6	0
Cc1nc2ccc(C(=O)N(C)CCCN(C)C)cn2c1N(C)CC1CCCCC1	-7	-12

(cont.)
SMILES	NPYLR7 agonist	NPYLR7 agonist max-min
CCc1cccc2c(C(CC(=O)NCCCN3CCCCC3C)c3ccc4c(c3)OCO4)c[nH]c12 (stereo not drawn)	1	3
CCc1ccc(-c2nc3c(c(=O)[nH]2)Cc2cccc(C)c2O3)cc1	3	4
COc1cccc(C2=N/C(=C\c3coc4c(Cl)cc(Cl)cc4c3=O)C(=O)O2)c1	-4	-6
O=C(C1COc2ccccc2O1)N(Cc1cccnc1)c1nc2c(Cl)cccc2s1 (stereo not drawn)	-22	-13
O=C(c1cccc(Br)c1)N1CCc2nc(-c3ccccc3)nc(N3CCCCC3)c2C1	-3	10
COc1ccc(S(=O)(=O)N(Cc2ccco2)Cc2cc3ccccc3o2)cc1	-6	-14
Cc1cccc(N2CCN(c3cc(C)nc4c(-c5ccccc5)c(C(F)(F)F)nn34)CC2)n1	-5	-8

Ordered by molecular weight (lowest first): some entries from above
SMILES	NPYLR7 agonist	NPYLR7 agonist max-min
COc1ccccc1Cc1noc2cc(O)ccc12	-1	-2
Cc1c(C)n2c3c(=O)[nH]c(=O)n(C)c3nc2n1CCCO	1	-3
CCc1c(C(=O)NC(C)c2ncnn2CC)csc1C (stereo not drawn)	9	7
O=S(=O)(NCCN1CC=CC1)c1ccc(Cl)cc1F	7	4
CCC1CN(CC(=O)NCc2ccccn2)c2ccccc2O1 (stereo not drawn)	-2	1
CCc1ccc(-c2nc3c(c(=O)[nH]2)Cc2cccc(C)c2O3)cc1	3	4
C=CCNC(=O)[C@@H]1CCCC[C@@H]1C(=O)NCC1(O)CCCCC1	6	2
CC(C)(Cc1ccccc1Cl)Nc1nn2c(=O)ccnc2s1	-1&2	-1&0
CC(C)(C)c1cc(C(=O)CCN2CCOCC2)cc(C(C)(C)C)c1O	4	2
O=C(NCC1=CCCN(Cc2cc(F)ccc2Cl)C1)c1ccco1	0	-1
CCn1c2c(c(=O)[nH]c1=O)C(c1ccc(O)cc1)C1C(=O)CC(C)(C)CC1=N2 (stereo not drawn)	12	15
COc1ccc(S(=O)(=O)N(Cc2ccco2)Cc2cc3ccccc3o2)cc1	-6	-14
Cc1nc2ccc(C(=O)N(C)CCCN(C)C)cn2c1N(C)CC1CCCCC1	-7	-12
CCOP(=O)(OCC)c1nc(-c2ccc(F)cc2)oc1NCc1ccccc1	0	-1
COc1cccc(C2=N/C(=C\c3coc4c(Cl)cc(Cl)cc4c3=O)C(=O)O2)c1	-4	-6
O=C(C1COc2ccccc2O1)N(Cc1cccnc1)c1nc2c(Cl)cccc2s1 (stereo not drawn)	-22	-13
COc1ccccc1NC(=O)Nc1ccnn1C1CCN(C(=O)C2CCCCN2C)CC1 (stereo not drawn)	7	4
Cc1cccc(N2CCN(c3cc(C)nc4c(-c5ccccc5)c(C(F)(F)F)nn34)CC2)n1	-5	-8
COc1ccc(CN(Cc2ccc(F)cc2)Cc2nc(C(=O)NCc3cccnc3)co2)cc1	31	28
CCc1cccc2c(C(CC(=O)NCCCN3CCCCC3C)c3ccc4c(c3)OCO4)c[nH]c12 (stereo not drawn)	1	3
O=C(c1cccc(Br)c1)N1CCc2nc(-c3ccccc3)nc(N3CCCCC3)c2C1	-3	10

Bioassay records deposited in PubChem BioAssay by Fisher Drug Discovery Resource Center.
